Beta apoptosis – inhibitors of cytokine-induced beta cell apoptosis, primary screen, luminescence; INS-1E cytokine-induced death, ATP luminescence, 48 h; percent of positive-control rescue, neutral wells zero; protection from apoptosis, % (concentration not given with the values); actives 0.8% (n = 300,000); AID 435005, 2010;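 active = all replicates at 75% or more, or half of them and the mean; inconclusive = half reach 75% but not the mean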;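 note: 0% = cytokine-treated negative control wells and 100% = positive control rescue; higher means more ATP so stronger rescue from cytokine killing; wells of about 40 µL received 100 nL stock; the first replicate is given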
Bfl-1 A1 inh – caspase 3/7 activation in MEF A1-2A-BIM cells, primary screen, A1 inhibitor project, cell-based, luminescence, HTS | Caspase-Glo 3/7 luminescence, 3 h; percent of clofoctol response, vehicle zero | caspase activation, % (concentration not given with the values) | actives 0.066% (n = 330,000) | AID 2462, 2010;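 active = over half of replicate activation scores above 10%, or exactly half above 10 with the replicate mean above 10; inconclusive = replicate mean below 10 yet half the replicates above 10; inactive = over half of replicates below 10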;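 note: wells of about 30 µL received 50 nL stock; many hits fall short of the cut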
LANA-H2B inh – blockers of LANA interaction with H2A/H2B – biochemical, FP readout, HTS, primary screen; Protein LANA1 (Human herpesvirus 8 type P (isolate GK18)), Q9QR71; cell-free LANA-H2A/H2B peptide, fluorescence polarization; inhibition, % (no concentration beside the values); actives 0.6% (n = 320,000); in the data active = inhibition mostly above about 10%, no sharp cut-off; inactive = mostly below about 6.7%;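 note: stock transfer was 7.5 nL into about 10 µL; 0% = median of vehicle wells and 100% = median of positive control wells; one replicate is shown; the record names a cut of 25% in any replicate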
UCH37 DUB inh – inhibitors of human UCH37 deubiquitinase, primary screen, biochemical, Ub-AMC cleavage, fluorescence; AID 588478, 2011; purified proteasome/UCH37; actives 0.33% (n = 330,000); inhibition, % (test concentration not listed); Ubiquitin carboxyl-terminal hydrolase isozyme L5 (Homo sapiens), Q9Y5K5;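 active = mean of two replicates above 20%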;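 note: 0% = compound-free wells with enzyme and 100% = wells lacking proteasome; stock transfer was 100 nL into about 20 µL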
Target sequence (Q9Y5K5 whole entry, looked up): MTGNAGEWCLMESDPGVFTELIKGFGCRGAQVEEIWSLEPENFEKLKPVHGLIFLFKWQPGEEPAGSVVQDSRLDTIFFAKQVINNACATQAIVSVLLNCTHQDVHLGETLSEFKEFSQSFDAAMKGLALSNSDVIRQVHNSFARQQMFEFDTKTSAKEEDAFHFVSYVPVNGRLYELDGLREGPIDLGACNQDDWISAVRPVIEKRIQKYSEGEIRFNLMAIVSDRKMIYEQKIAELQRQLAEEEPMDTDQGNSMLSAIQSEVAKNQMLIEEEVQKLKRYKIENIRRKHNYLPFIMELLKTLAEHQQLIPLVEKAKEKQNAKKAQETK
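Material: human UCH37 enzyme supplied as purified proteasome complex. Measure: % inhibition of Ub-AMC cleavage fluorescence. Medium: pH 7.4 Tris-HCl (50 mM) with ovalbumin, ATP-MgCl2, DTT. Times: 30 min preincubation with enzyme, 25 min cleavage at room temperature. Detection: AMC fluorescence intensity at 355/460 nm.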
RanGTP-Impb inh – inhibitors of RanGTP-importin-beta interaction, primary screen, biochemical, FRET, CFP-Ran, YFP-importin-beta, homogeneous; cell-free CFP-Ran/YFP-importin-beta FRET ratio; inhibition, % (no concentration beside the values); actives 1.1% (n = 300,000); AID 2216, 2009;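 active = most replicates above 15%; inconclusive = exactly half above 15%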;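 note: 0% = DMSO wells and 100% = Ran loaded with GDP instead of GTP; wells of about 40 µL received 100 nL stock; the first replicate is given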
B2AR ag – beta2AR agonists driving receptor internalization, primary screen, cell-based, FAP fluorogen, flow cytometry; Beta-2 adrenergic receptor (Homo sapiens), P07550; Am2.2-beta2AR cells; reference of the scale not given here; response, % (test concentration not listed); actives 0.43% (n = 340,000); AID 504454, 2011;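 active = response above a set limit, near 3 SD of response in nonfluorescent compounds, cut at about 42% in these data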;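 note: stock transfer was 100 nL into about 11 µL; a reference agonist was the positive control; negative values mostly stem from fluorescent compounds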
Target sequence (P07550 whole entry, looked up): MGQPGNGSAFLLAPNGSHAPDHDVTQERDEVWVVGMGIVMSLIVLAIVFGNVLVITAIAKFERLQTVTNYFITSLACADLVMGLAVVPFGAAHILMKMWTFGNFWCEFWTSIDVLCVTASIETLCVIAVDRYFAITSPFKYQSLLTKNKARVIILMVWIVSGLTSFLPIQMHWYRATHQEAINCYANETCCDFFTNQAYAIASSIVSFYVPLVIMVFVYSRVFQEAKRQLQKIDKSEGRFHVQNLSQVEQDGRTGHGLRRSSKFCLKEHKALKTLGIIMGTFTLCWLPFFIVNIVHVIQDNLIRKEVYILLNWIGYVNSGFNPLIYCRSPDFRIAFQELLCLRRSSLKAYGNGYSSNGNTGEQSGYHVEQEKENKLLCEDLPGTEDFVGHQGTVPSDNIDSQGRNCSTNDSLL
T cruzi repl – inhibitors of intracellular T. cruzi growth, primary screen, luminescence, NIH3T3 host cells; T. cruzi beta-gal in NIH3T3, 90 h; inhibition, % (test concentration not listed); actives 1.4% (n = 300,000);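 active = mean inhibition across valid replicates above about 55%, limit read from the data; inconclusive = mean below that limit but half or more replicates reach it; inactive = mean below it, under half of replicates reach it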;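 note: signal also drops with host cell toxicity which is not excluded here; 0% = plate median of DMSO wells and 100% = zero luminescence signal; higher percent means less beta-gal luminescence so fewer parasites; stock transfer was 50 nL into about 50 µL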
Calb FLC – C. albicans growth inhibition with fluconazole, primary screen, CaCi-2 strain, Alamar Blue fluorescence. actives 0.57% (n = 300,000). C. albicans CaCi-2 (fluconazole-resistant clinical isolate) + fluconazole, 48 h. AID 1979, 2009. growth inhibition, % (no concentration beside the values);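 active = most replicates above 75%; inconclusive = exactly half above 75%; inactive = most below 75%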;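 note: all wells also contain fluconazole at 8 µg/ml as a sub-toxic cotreatment; 0% = median of DMSO wells and 100% = median of geldanamycin control wells; wells of about 8 µL received 7.5 nL stock; the first replicate is given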
An asterisk follows results filed as active; u = inconclusive; x = not tested or not shown.

SMILES	Beta apoptosis	Bfl-1 A1 inh	LANA-H2B inh	UCH37 DUB inh	RanGTP-Impb inh	B2AR ag	T cruzi repl	Calb FLC
Cc1ccccc1C(=O)Nc1ccnn1C1CCN(Cc2ccncc2)CC1	x	-1.4	1.2	1.4	-0.2	2	-1	-3
CCOC(=O)CNC(=O)N1CCCC(N(C)CCc2ccccc2)C1 (stereo not given)	x	-0.1	-7.2	3.3	-0.8	-3	-1	29
CCc1nnc(NC(=O)CCC(=O)N2CCN(S(=O)(=O)c3ccc(OC)cc3)CC2)s1	-6	-0.5	1.3	0.8	-2.7	-4	23	-2
CC(=O)Nc1ccc2nc(-c3ccco3)[nH]c2c1	0	-1.5	-8.8	-45	-9.5	-8	-5	-2
Cc1ccc(NC(=O)c2ccc(S(=O)(=O)N3CCC(C)CC3)cc2)cc1	7	1.5	-1.6	4.2	2.6	11	6	-16
COc1ccc(Cl)cc1S(=O)(=O)n1ccnc1	-6	0.4	0.5	2.2	2.3	-14	-3	3
O=S1(=O)CCOCCCN1Cc1ccccc1	-4	-0.2	-0.7	-0.7	2.2	-4	-16	-18
Cc1ccc(-n2nc(C)c3c2OC(N)=C(C#N)C3c2ccc(C)o2)cc1 (stereo not given)	-6	0.7	3.3	7.7	-0.2	1	-22	-6
CCCCn1c(N)c(NCc2ccccc2)c(=O)[nH]c1=O	5	-0.6	3.1	5.2	-0.8	-2	-10	8
Cc1ccc(NS(=O)(=O)c2ccc(C(=O)NCC3CCCO3)cc2)cc1 (stereo not given)	-3	-0.1	-1.7	1.0	0.9	0	8	-7
COc1cc(C2NC(=S)NC(C)=C2C(=O)OC(C)C)ccc1OC(C)C (stereo not given)	-6	0.6	4.8	2.5	-1.7	-13	12	2
O=C(N/N=C/c1cc(Br)cs1)c1ccc2c(c1)OCCO2	5	-0.6	1.4	x	-0.3	-1	-6	5
Cc1cc(C)c(NC(=O)CS(=O)CC(=O)Nc2ccc(-n3cnnn3)c(C)c2)c(C)c1 (stereo not given)	-1	-0.1	0.2	0.3	2.2	2	-13	8
CC(=O)Nc1ccc(NC(=O)CSc2nnc(C3CC3)n2C)cc1	4	0.4	0.4	4.1	-1.9	-9	6	3
Cc1cc(C(=O)N/N=C2\CCCC(C)C2)n[nH]1 (stereo not given)	-8	0.8	-2.6	x	4.5	8	-20	-2
COc1cc(OC)cc(C(=O)NC2CCN(Cc3nnnn3Cc3cccs3)CC2)c1	2	0.4	0.2	-0.4	0.8	2	9	-1
Cc1ccc(-n2ncc3c(=O)n(CC(=O)N(C)C)cnc32)cc1	x	0.9	3.5	1.1	0.3	-3	-7	3
CCCCCC(=O)Nc1nc(C)c(-c2csc(Nc3cc(OC)ccc3OC)n2)s1	2	-0.2	0.2	0.1	-1.0	16	-11	-2
O=C(CSc1nnc(-c2ccc(F)cc2)n1-c1ccccc1)NCCN1C(=O)CSC1=O	1	0.5	3.9	2.0	0.9	-2	8	-5
Clc1ccc2c(N3CCCC3)ccnc2c1	11	1.9	3.0	12	-0.2	-17	7	9
CC(=O)NC(=S)Nc1ccc(NC(=O)COc2ccc(C(C)C)cc2)cc1	3	0.9	1.3	1.5	6.8	1	7	15
O=C1N/C(=N\N=C\c2ccco2)SC1Cc1ccc(F)cc1 (stereo not given)	-17	1.5	-0.6	x	-2.4	1	2	32
Cc1cc(OCC(=O)Nc2nccs2)c2c(C)cc(=O)oc2c1	0	-0.3	-2.3	-2.6	5.9	8	-23	2
CCC(=O)Nc1ccc(N2CCOCC2)c(S(=O)(=O)Nc2ccc(Cl)cc2)c1	2	0.3	0.4	1.5	x	-2	x	x
O=C(Nc1nccs1)c1cc(-c2ccccc2)nn1-c1ccccc1	-7	0.7	-5.4	-4.9	1.4	-3	5	4
CCn1nc(C)c(CN2CCCC(C(=O)c3cccc(OC(C)C)c3)C2)c1C (stereo not given)	25	-0.6	-3.8	-2.3	11	2	65*	-3
CN(C)C(=O)c1ccc(NS(=O)(=O)c2ccc3c(c2)OCCO3)cc1	-1	0.2	-1.9	-1.4	4.0	-1	-13	-4
CN(C)C(=O)CN1CCN(Cc2cn(C)nc2-c2ccc3c(c2)OCCO3)CC1	-2	-0.4	2.1	0.2	1.5	-6	-2	10
COc1ccc(S(=O)(=O)Nc2cccc3c2O[C@H](CN(C)S(=O)(=O)c2ccccc2)[C@@H](C)CN([C@H](C)CO)C3=O)cc1	-7	0.7	3.5	2.5	x	5	x	x
Cc1ccc(CCn2c3c(c4ccccc42)CN(C)CC3)cn1	2	1.1	-3.5	1.6	2.9	-4	36	-7
C=CCOc1ccc(CNC(C)(C)C)cc1OC	5	-0.6	2.1	0.4	0.3	-4	-2	0
O=C(CN1C(=O)CCC1=O)Nc1nc(-c2nc3ccccc3s2)cs1	x	0.1	-1.8	-40	1.2	103*	-2	9
Cc1ccc(S(=O)(=O)N[C@@H](Cc2ccccc2)C(=O)N2CCC(C(=O)N[C@@H](CCC(N)=O)C(=O)O)CC2)cc1	-12	-0.1	4.2	5.2	-0.5	-10	-6	-2
O=C(c1ccc2c(c1)C(=O)N(c1ccc(Cl)cc1)C2=O)N1CCN(c2ccccn2)CC1	-1	1.0	5.7	5.3	u	0	-9	-1
COc1ccccc1C(=O)N/C(=C\c1cn(S(=O)(=O)N(C)C)c2ccccc12)C(=O)N1CCCCC1	13	0.1	0.7	-17	-1.6	7	12	20
CCC(CO)Oc1cc(NCc2ccccc2OC)c2ncn(C(C)C)c2c1 (stereo not given)	4	0.3	2.4	2.1	x	-5	x	x
CC(C)=C1SC(N2CCN(Cc3ccccc3)CC2)=NC1=O	x	0.2	0.0	7.7	-1.1	-9	-2	-5
COc1ccc(N2CCC(CNC(=S)Nc3cc(C)cc(C)c3)C2)cc1 (stereo not given)	1	-0.4	0.9	2.1	1.2	2	22	-2
Cc1ccc(C)c(S(=O)(=O)N/N=C/c2ccc(N(C)C)cc2)c1	0	0.0	7.6	x	2.4	2	-5	8
CCC(=O)OCC(=O)c1c(N)n(Cc2ccccc2)c(=O)n(C)c1=O	-8	0.3	0.5	3.9	-2.2	8	-2	24
CCOc1ccc(CN2CCN(Cc3cnn(CC)c3C)CC2CCO)cc1 (stereo not given)	-4	0.1	0.8	4.1	-2.1	-4	26	-8
N#C/C=C\Oc1ccc(Cl)cc1N	0	0.1	4.2	0.4	-2.3	3	-32	12
CC(/C=C/c1ccccc1F)=N\NC(=O)c1ccc(Cl)cc1	10	0.5	3.2	x	0.8	7	-27	22
c1coc(-c2nc3c4c5c(sc4ncn3n2)CCCC5)c1	-2	0.1	-6.9	0.8	-2.7	-4	1	46
CN(CCc1ccccn1)C1CCCN(S(=O)(=O)c2ccc(F)c(Cl)c2)C1 (stereo not given)	-6	0.4	2.1	-0.8	3.0	-13	72*	-1
CCOC(=O)c1cnc(SC2CC(=O)N(c3cccc(OC)c3)C2=O)nc1N (stereo not given)	-5	1.6	2.6	1.3	1.1	1	7	3
CCN(CC)C(=S)SCC(=O)Nc1ccc(F)cc1	0	u	-2.1	2.4	2.3	1	-4	3
O=C(Oc1coc(CSc2ncccn2)cc1=O)c1cccc([N+](=O)[O-])c1	-11	0.5	-2.2	4.6	u	8	1	-5
O=C(NC1CCS(=O)(=O)C1)c1cnccn1 (stereo not given)	-8	0.8	7.5	1.2	u	-1	-12	-5
CCOc1ccc(NC(=O)COC(=O)C23CC4CC(CC(C4)C2)C3)c([N+](=O)[O-])c1	-10	-0.2	5.8	4.2	-0.1	-9	6	-35
Cc1ccsc1/C=N/Nc1ncnc2nc[nH]c12	5	-1.3	-2.4	x	-3.4	2	-21	-13
Cc1ccc(-c2nc3ccccn3c2NC(=O)c2ccco2)cc1	-1	0.7	0.9	1.6	u	-3	9	5
COc1cc(OC)cc(C(=O)NC(C)c2cnn(-c3ccccc3C)c2C)c1 (stereo not given)	-4	1.0	0.9	-1.2	-0.1	-6	1	2
COc1cc(OC)c(/C=C2\C(=O)Nc3ccccc32)c(OC)c1	7	0.6	-0.7	3.9	x	x	x	x
N#CC(C(=O)c1ccccc1)=C1SCCS1	-5	-0.9	-6.9	7.7	-5.4	11	-5	-7
CCCn1nc(C(=O)N(C)CC(=O)Nc2ccc(OCC)c(OCC)c2)c2ccccc2c1=O	4	0.9	0.3	0.3	x	-5	x	x
O=C(O)C(Cc1ccccc1)N1C(=O)/C(=C/c2cccnc2)SC1=S (stereo not given)	-12	0.9	-3.0	9.3	3.9	-5	-12	3
CCOc1ccc2nc(C)cc(Nc3ccc(N4CCOCC4)cc3)c2c1	-5	-0.1	0.1	8.2	1.0	x	45	-21
Cc1ccc(-c2nc(CS(=O)CC(=O)NCc3ccc(F)cc3)c(C)o2)cc1 (stereo not given)	-4	-0.3	0.7	2.4	-1.1	-3	3	-27
COc1cc(C(CCN2CCCCC2)c2c(OC)cc(OC)c3c(-c4ccccc4)cc(=O)oc23)cc(OC)c1OC (stereo not given)	11	1.2	-3.3	-0.1	-3.3	7	42	-2

Gathered by group: the compounds so far containing a COOH group.
SMILES	Beta apoptosis	Bfl-1 A1 inh	LANA-H2B inh	UCH37 DUB inh	RanGTP-Impb inh	B2AR ag	T cruzi repl	Calb FLC
Cc1ccc(S(=O)(=O)N[C@@H](Cc2ccccc2)C(=O)N2CCC(C(=O)N[C@@H](CCC(N)=O)C(=O)O)CC2)cc1	-12	-0.1	4.2	5.2	-0.5	-10	-6	-2
O=C(O)C(Cc1ccccc1)N1C(=O)/C(=C/c2cccnc2)SC1=S (stereo not given)	-12	0.9	-3.0	9.3	3.9	-5	-12	3

New compounds follow:
SMILES	Beta apoptosis	Bfl-1 A1 inh	LANA-H2B inh	UCH37 DUB inh	RanGTP-Impb inh	B2AR ag	T cruzi repl	Calb FLC
CCOC(=O)CNC(c1ccccc1)c1cc(Br)ccc1NC(=O)OCC (stereo not given)	3	-0.8	-5.9	1.3	2.0	4	26	-2
Cc1cc(OC(=O)c2ccccc2F)c([N+](=O)[O-])c(=O)[nH]1	x	1.7	-2.5	5.7	-1.8	-7	5	0
O=C(CCc1ccccn1)N1CCCC(CNS(=O)(=O)c2cccs2)C1 (stereo not given)	x	1.1	0.1	3.6	6.6	11	-2	3
CC(C)CCN1C(=O)CCC1(C)C(=O)NC1CCCCCCC1 (stereo not given)	-11	-0.1	-0.1	-0.4	7.9	1	-2	0
Cc1ccc(NC(=O)c2ccc(N3C(=O)C4CC=C(Cl)CC4C3=O)cc2)cc1 (stereo not given)	x	-0.6	-2.4	0.0	1.4	7	-1	36
COc1ccc(N(C)C(=O)c2cc3c(s2)-c2c(C)cccc2OC3)c(OC)c1	-9	-0.4	1.7	-3.1	-0.9	2	43	0
N#Cc1sc(NCc2ccccn2)nc1Cl	1	1.2	-0.2	-1.5	-0.8	-1	-6	20

Outcome played no part in choosing rows, and some 4.3% of all compounds hit somewhere here.
